A1 inh: inhibitors of the anti-apoptotic protein A1, read as caspase activation | MEF A1-2A-BIM cells, Caspase-Glo 3/7 luminescence, 3 h; percent of clofoctol response, vehicle zero | caspase activation, % (test concentration not listed) | 330,000 tested, 0.066% active;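 active = over half of replicate activation scores above 10%, or exactly half above 10 with the replicate mean above 10; inconclusive = replicate mean below 10 yet half the replicates above 10; inactive = over half of replicates below 10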;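 note: wells of about 30 µL received 50 nL stock; many hits fall short of the cut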
T cruzi inh: blocks replication of Trypanosoma cruzi. T. cruzi beta-gal in NIH3T3, luminescence, 90 h. inhibition, % (no concentration beside the values). 300,000 tested, 1.4% active;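 active = mean inhibition across valid replicates above about 55%, limit read from the data; inconclusive = mean below that limit but half or more replicates reach it; inactive = mean below it, under half of replicates reach it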;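 note: signal also drops with host cell toxicity which is not excluded here; 0% = plate median of DMSO wells and 100% = zero luminescence signal; higher percent means less beta-gal luminescence so fewer parasites; stock transfer was 50 nL into about 50 µL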
UCH37 inh: blocks the human deubiquitinase UCH37 | Q9Y5K5 | purified proteasome/UCH37, Ub-AMC cleavage fluorescence | inhibition, % (test concentration not listed) | 330,000 tested, 0.33% active | AID 588478;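 active = mean of two replicates above 20%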;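 note: 0% = compound-free wells with enzyme and 100% = wells lacking proteasome; stock transfer was 100 nL into about 20 µL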
Target sequence (Q9Y5K5 whole entry, looked up): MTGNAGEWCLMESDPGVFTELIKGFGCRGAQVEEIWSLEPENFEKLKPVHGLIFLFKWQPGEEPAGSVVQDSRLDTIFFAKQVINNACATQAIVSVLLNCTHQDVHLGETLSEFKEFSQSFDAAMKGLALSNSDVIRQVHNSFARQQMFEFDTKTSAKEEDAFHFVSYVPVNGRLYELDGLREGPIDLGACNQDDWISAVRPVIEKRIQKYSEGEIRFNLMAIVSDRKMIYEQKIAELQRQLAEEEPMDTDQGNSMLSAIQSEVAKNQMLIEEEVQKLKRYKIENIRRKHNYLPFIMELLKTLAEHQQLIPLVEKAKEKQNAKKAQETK
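system = Proteasome-associated human UCH37 deubiquitinase | amount = 0.15 nM proteasome as dispensed | medium = pH 7.4 Tris-HCl (50 mM) with ovalbumin, ATP-MgCl2, DTT | incubation = 30 min preincubation with enzyme, 25 min cleavage at room temperature | detection = AMC fluorescence 355/460 nm | read-out basis = percent inhibition | controls = no-proteasome and no-compound wells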
RanGTP-Imp inh: disruptors of Ran-importin-beta complex formation – biochemical, FRET, CFP-Ran, YFP-importin-beta, homogeneous, primary screen. cell-free CFP-Ran/YFP-importin-beta FRET ratio. inhibition, % (concentration not given with the values). 300,000 tested, 1.1% active. AID 2216;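 active = most replicates above 15%; inconclusive = exactly half above 15%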;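 note: 0% = DMSO wells and 100% = Ran loaded with GDP instead of GTP; wells of about 40 µL received 100 nL stock; the first replicate is given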
Calb FLC: affects C. albicans growth with fluconazole; growth inhibition, % (test concentration not listed); C. albicans CaCi-2 (fluconazole-resistant clinical isolate) + fluconazole, Alamar Blue growth, 48 h; AID 1979; 300,000 tested, 0.57% active;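 active = most replicates above 75%; inconclusive = exactly half above 75%; inactive = most below 75%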;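 note: all wells also contain fluconazole at 8 µg/ml as a sub-toxic cotreatment; 0% = median of DMSO wells and 100% = median of geldanamycin control wells; wells of about 8 µL received 7.5 nL stock; the first replicate is given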
Beta2AR agonist: human beta-2 adrenergic receptor agonism by FAP | AID 504454 | 340,000 tested, 0.43% active | response, % (concentration not given with the values) | Am2.2-beta2AR cells, FAP receptor internalization, flow cytometry; reference of the scale not given here;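 active = response above a set limit, near 3 SD of response in nonfluorescent compounds, cut at about 42% in these data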;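 note: stock transfer was 100 nL into about 11 µL; a reference agonist was the positive control; negative values mostly stem from fluorescent compounds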
Target sequence (P07550 whole entry, looked up): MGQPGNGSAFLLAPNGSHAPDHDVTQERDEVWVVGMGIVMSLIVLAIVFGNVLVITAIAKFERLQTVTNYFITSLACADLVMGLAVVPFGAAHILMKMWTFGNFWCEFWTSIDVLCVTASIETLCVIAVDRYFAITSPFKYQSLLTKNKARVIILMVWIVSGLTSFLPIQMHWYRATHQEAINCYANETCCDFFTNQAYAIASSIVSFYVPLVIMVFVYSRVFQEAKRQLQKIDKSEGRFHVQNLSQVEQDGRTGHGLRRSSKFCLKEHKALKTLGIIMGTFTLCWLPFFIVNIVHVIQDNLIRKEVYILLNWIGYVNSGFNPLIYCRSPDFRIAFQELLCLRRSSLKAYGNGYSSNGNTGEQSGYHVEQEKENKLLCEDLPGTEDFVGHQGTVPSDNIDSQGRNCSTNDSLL
LANA-H2A inh: blocks KSHV LANA binding to histone H2A/H2B; Q9QR71; cell-free LANA-H2A/H2B peptide, fluorescence polarization; inhibition, % (no concentration beside the values); 320,000 tested, 0.6% active; in the data active = inhibition mostly above about 10%, no sharp cut-off; inactive = mostly below about 6.7%;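 note: stock transfer was 7.5 nL into about 10 µL; 0% = median of vehicle wells and 100% = median of positive control wells; one replicate is shown; the record names a cut of 25% in any replicate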
Beta cell apopt: beta cell apoptosis inhibition. INS-1E cytokine-induced death, ATP luminescence, 48 h; percent of positive-control rescue, neutral wells zero. protection from apoptosis, % (concentration not given with the values). 300,000 tested, 0.8% active. AID 435005;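 active = all replicates at 75% or more, or half of them and the mean; inconclusive = half reach 75% but not the mean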;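 note: 0% = cytokine-treated negative control wells and 100% = positive control rescue; higher means more ATP so stronger rescue from cytokine killing; wells of about 40 µL received 100 nL stock; the first replicate is given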
Starred values were filed as active, the others as inactive; ? = inconclusive; . = no result given. Rows were taken by chance (roughly 4.3% active in at least one column).

SMILES | A1 inh | T cruzi inh | UCH37 inh | RanGTP-Imp inh | Calb FLC | Beta2AR agonist | LANA-H2A inh | Beta cell apopt
Cc1ccc(NC(=O)COC(=O)C2C3CC4OC(=O)C2C4C3)cc1 (stereo not given) | -0.3 | 2.1 | 4.6 | 3.0 | -0.5 | -5.5 | 2.3 | 1.9
COc1ccc(C(=O)N(Cc2ccccc2)Cc2cc3cc4c(cc3[nH]c2=O)OCCO4)cc1 | -0.3 | -9.6 | -30.6 | 0.4 | 14.0 | 2.9 | 1.3 | -0.8
COc1ccc(NC(=O)CN(C)CC(=O)Nc2ccccc2SC)cc1Cl | 1.1 | 3.2 | -1.2 | -2.5 | -1.0 | 3.7 | 4.6 | -1.1
N#CC(C(=O)OCc1ccccc1)c1nc2ccccc2nc1N1CCOCC1 (stereo not given) | 0.0 | ? | 2.6 | 6.3 | ? | -2.8 | 2.4 | 14.3
CCC(=O)N(Cc1cc2cc(OC)ccc2[nH]c1=O)c1ccc(C)cc1C | 0.4 | 11.0 | -61.6 | -2.8 | 21.3 | 2.5 | -1.8 | -3.6
CCOC(=O)c1sc(NC(C)=O)cc1C | -0.5 | 1.0 | 4.3 | -2.4 | 9.1 | -21.7 | -3.2 | -1.9
CCN(CC)C(=O)CSc1nnc(-c2ccccc2)o1 | -0.2 | -8.8 | 5.4 | -3.5 | 6.2 | -10.9 | 3.7 | -6.0
COc1ccccc1NC(=O)CCc1nnc2ccc(N3CCN(C)CC3)nn12 | -0.7 | -11.6 | 5.4 | 1.0 | 7.1 | -1.6 | -0.4 | -3.3
CCOC(=O)N1CCN(C(=O)COc2cccc3c2CCN(Cc2ccccc2F)C3=O)CC1 | -0.7 | 11.4 | 2.9 | 3.3 | 14.0 | 2.7 | 6.4 | 1.2
Cc1ccc(-c2noc(CCC(=O)NC3CCN(Cc4ccccc4)CC3)n2)cc1 | . | 46.4 | 2.7 | 1.2 | 15.8 | -8.9 | . | .

The final two entries of the part before are carried over, then new ones follow.
SMILES | A1 inh | T cruzi inh | UCH37 inh | RanGTP-Imp inh | Calb FLC | Beta2AR agonist | LANA-H2A inh | Beta cell apopt
CCOC(=O)N1CCN(C(=O)COc2cccc3c2CCN(Cc2ccccc2F)C3=O)CC1 | -0.7 | 11.4 | 2.9 | 3.3 | 14.0 | 2.7 | 6.4 | 1.2
Cc1ccc(-c2noc(CCC(=O)NC3CCN(Cc4ccccc4)CC3)n2)cc1 | . | 46.4 | 2.7 | 1.2 | 15.8 | -8.9 | . | .
CCSc1nnc(NC(=O)CSc2nnc(CNC(=O)c3ccccc3F)o2)s1 | 0.6 | 6.8 | 4.2 | -0.3 | 4.5 | 6.5 | -2.6 | -7.2
COc1ccc(-n2c(C)nc3cc(C(=O)NCc4ccc5c(c4)OCO5)ccc32)cc1 | 0.3 | -1.1 | 4.1 | 2.0 | -9.8 | -1.8 | -1.1 | -6.0
Cc1cc(C)c2nc(C(F)(F)F)c(C#N)c(N)c2c1 | -1.1 | 2.8 | -6.1 | 0.9 | 6.5 | 1.2 | -4.7 | -7.8
C/C=C(/C(=C/C)c1ccc(O)cc1)c1ccc(O)cc1 | 1.3 | -4.2 | 0.4 | 5.0 | 13.3 | -14.6 | 2.2 | -16.4
COc1cc2ccccc2cc1C(=O)O | 0.7 | -1.5 | -9.4 | -0.5 | 22.9 | -0.8 | 5.0 | -7.9
CCN(CC)CC(O)CCCCCCCCC(=O)OC (stereo not given) | 0.2 | -2.3 | 2.8 | 0.0 | -7.8 | 0.6 | 5.3 | 43.6
CCc1ccc(NC(=O)CCCN2C(=O)C3CC=CCC3C2=O)cc1 (stereo not given) | 0.1 | 2.5 | 3.1 | 7.0 | 10.5 | -3.4 | 2.9 | -8.6
Cc1ccc(-c2nnn(CC(=O)N(Cc3ccco3)C(C(=O)NC3CCCC3)c3cccs3)n2)o1 (stereo not given) | 0.5 | 16.5 | 3.0 | 5.7 | 8.7 | -4.3 | 0.7 | -2.9
CC1CCCCN1CCCNC(=O)c1cc(Br)c(Br)[nH]1 (stereo not given) | 0.2 | 8.6 | 7.7 | -0.4 | 7.2 | 1.0 | 10.7 | 2.1
CC1=CC2=NC(=O)/C(=C\c3cccn3CCOc3ccc(C)c(C)c3)C(=N)N2O1 | 0.6 | -7.1 | 4.1 | ? | -15.1 | -6.5 | -5.4 | 5.8
COCc1cc(=O)[nH]c(Nc2nc(C)c3ccccc3n2)n1 | 0.2 | -0.6 | 4.5 | -1.6 | 3.1 | -8.4 | -5.0 | -2.3
COc1ccc(/C=N/n2cnnc2)cc1Cn1nc(C)c([N+](=O)[O-])c1C | 0.4 | 0.2 | . | 0.8 | -7.4 | -2.2 | -2.3 | -0.4
Cc1nc2ccccc2c(=O)n1NC(=O)C1CCCCC1 | 0.7 | -23.1 | 1.7 | 3.1 | -1.8 | 1.6 | 9.6 | -0.7
Cc1ccc(C(=O)NCC(=O)N2CCC3(CC2)NCCc2[nH]cnc23)cc1C | 1.4 | -21.7 | -0.8 | 0.2 | -2.9 | 1.4 | 0.8 | -6.9
CCn1cc([N+](=O)[O-])c(C(=O)N2N=C(c3ccc4ccccc4c3)CC2c2cc(Br)ccc2O)n1 (stereo not given) | -0.7 | 55.6* | 1.5 | 1.1 | 0.1 | 2.0 | 2.0 | 26.7
COc1ccc2c(c1)cc(C(=O)N[C@H](C(=O)N1CCC(C(=O)O)CC1)C(C)C)n2C | 1.0 | -10.3 | -92.8 | 2.8 | 3.7 | 2.5 | -5.9 | -3.0
Cc1ccccc1Nc1nc(N)nc(CSc2n[nH]c(N)n2)n1 | 0.0 | -10.9 | 1.1 | -1.3 | -6.6 | -2.3 | 6.5 | -6.0
O=C(N/N=C/c1ccc([N+](=O)[O-])o1)c1cn(-c2ccccc2)nc1-c1ccccc1 | -0.1 | 59.9* | . | -1.3 | 10.0 | 8.9 | 3.7 | 18.8
COCc1cc(C)nc(OCC(=O)N/N=C\c2cc(C)n(-c3cccc(C(F)(F)F)c3)c2C)c1C#N | 0.0 | -4.5 | . | -1.3 | 0.4 | -8.9 | -7.4 | 1.6
Cc1ccc(Nc2nc(C(=O)N3CCC(C(=O)NCc4ccccc4)CC3)cs2)cc1 | 1.8 | 5.6 | 0.4 | ? | 2.1 | 5.1 | -2.0 | .
Cn1cnc(S(=O)(=O)N2CCN(c3cccc(Cl)c3)CC2)c1 | -1.0 | -2.8 | 1.1 | 7.3 | 2.3 | 7.8 | 0.2 | 6.3
CCCCCCNc1cc2n(c(=O)n1)CCc1cc(OC)c(OC)cc1-2 | -0.6 | . | -131.0 | . | . | -6.4 | -2.5 | 11.7
COc1ccc(NC(=O)Nc2ccc3nc(C)c(C)nc3c2)cc1 | 0.5 | -6.6 | 6.5 | 1.3 | 22.7 | 6.0 | -1.2 | 2.6
CCCCNC(=O)c1cc2cc(OC)ccc2[nH]1 | 0.9 | 13.9 | -93.4 | 5.0 | -1.5 | 1.9 | -3.4 | -6.0
O=C(Cc1ccccc1)NC(NC(=O)Cc1ccccc1)c1cccc([N+](=O)[O-])c1 | -0.1 | -9.5 | -1.1 | 5.7 | 7.4 | 2.8 | 1.6 | -1.2
CN(C)S(=O)(=O)c1ccc(NC(=O)CN2CCCCCC2)cc1 | 0.2 | -14.4 | 4.3 | 6.2 | -0.1 | -4.5 | -1.2 | -4.3
C/C(=N\NS(=O)(=O)c1ccccc1)c1ccc2c(c1)OCCO2 | 0.1 | -10.8 | . | 2.4 | 3.4 | 1.0 | -8.4 | -2.1
O=C(O)C1CC(=O)N(Cc2ccc3c(c2)OCO3)C1 (stereo not given) | -0.5 | -11.6 | -1.4 | -1.5 | -2.3 | 3.5 | 3.3 | -15.6
Cn1nnnc1SCC(=O)C(C)(C)C | -0.2 | -2.3 | 4.7 | -0.2 | -0.1 | -0.8 | -2.5 | -10.5
C/C(=N\OCc1nc2ccccc2c(=O)n1/N=C/c1cc([N+](=O)[O-])ccc1O)c1ccccc1 | -0.5 | 21.3 | . | -1.3 | -3.6 | 17.9 | 3.1 | 25.1
Cc1ccc(NC2=C(Cl)C(=O)OC2OC(=O)c2ccco2)cc1 (stereo not given) | -0.1 | 16.6 | 0.8 | -0.2 | -17.3 | 9.4 | -2.0 | -7.6
CC(C)CCNC(=O)C1CCN(C(=O)N(C)C)CC1 | -0.9 | -6.3 | 5.0 | ? | 27.9 | -0.1 | 2.5 | -2.9
CCN(CC(=O)NCc1ccc(Cl)cc1)C(=O)CSc1ccccc1F | 0.5 | 5.6 | 2.1 | 0.9 | -1.7 | 4.9 | 0.5 | -1.9
COc1ccccc1NC(=O)CC(=O)Nc1ccccc1OC | 1.3 | -4.8 | 0.8 | 1.0 | -15.5 | 11.8 | 0.4 | -1.1
CC(/C=C1\N=C(SCc2ccccc2Cl)SC1=O)=C\c1ccccc1 | 0.5 | -13.0 | 7.2 | -0.2 | -3.0 | 0.2 | 0.7 | -4.7
Cc1nc2nc[nH]n2c(=O)c1CCOC(=O)c1ccccc1F | 0.4 | -5.7 | 6.0 | -6.3 | -11.4 | 6.5 | 10.4* | .
CCC1(c2ccc(F)cc2)NC(=O)N(CC(=O)Nc2cccc(S(=O)(=O)N3CCCCC3)c2)C1=O (stereo not given) | -0.3 | -10.6 | . | -1.7 | 0.9 | 8.0 | 1.3 | .
O=C(NC1CCCc2ccccc21)C(Cc1ccccc1)NS(=O)(=O)c1cccs1 (stereo not given) | 0.5 | 1.7 | 1.3 | -2.0 | -3.7 | 4.3 | -1.6 | -2.9
CN(C(=S)NC(=O)c1ccc(Br)o1)c1ccccc1 | -0.5 | -6.5 | 6.3 | 0.6 | -8.9 | 1.2 | 3.9 | -6.5
CCCS(=O)(=O)N1CCCC(c2nc(-c3cccc(OC)c3)no2)C1 (stereo not given) | -0.9 | 25.2 | 2.7 | 0.2 | 19.0 | 3.0 | -1.7 | -6.9
COc1ccc2oc(=O)c(C(=O)NCc3ccc4c(c3)OCO4)cc2c1 | 0.1 | 2.3 | -25.5 | 3.5 | -0.4 | 14.1 | 3.6 | 1.8
COc1ccc(NC(=O)C(C)N2c3cccc4cccc(c34)S2(=O)=O)c(OC)c1 (stereo not given) | -0.9 | 12.5 | -26.1 | 0.0 | 2.9 | 2.8 | 2.1 | -4.1
O=C(NCCCN1CCOCC1)c1ccccc1 | 0.3 | -16.5 | 3.4 | 2.2 | 4.9 | -2.1 | -0.1 | -7.3
C[C@H](NC(=O)[C@@H]1Cc2ccccc2CN1)C(=O)NC[C@H]1CC[C@H](C(=O)O)CC1 | 0.7 | -7.6 | . | 0.6 | 8.7 | -2.6 | -1.2 | -5.9
COc1ccc(-n2c(=S)[nH]c3cc(C(=O)NCc4cccnc4)ccc3c2=O)cc1 | 0.1 | -6.6 | 1.5 | 4.4 | 4.2 | 6.4 | 0.2 | .
Oc1c(CN2CCCCC2)cc(COCc2ccccc2)c2cccnc12 | -0.1 | 71.8* | . | 6.9 | -0.3 | 32.2 | 8.8 | 39.5
CCC(=O)NC(=S)Nc1cccc(Cl)c1N1CCCC1 | -1.9 | 15.7 | 3.2 | 0.3 | 10.6 | 0.1 | 9.4 | -3.7

From PubChem BioAssay
